# Source: PubChem
# gsp agonist = gsp mutant agonism; gsp mutant cells, cAMP HTRF, 30 min; control for the full effect not named in the record; Potency, µM (highest dose often 76.9 µM), without a hit: at the highest dose activation (cAMP increase), usual class: activators; hit rate 0.13% among 340,000; active = well fitted activation curve with a large enough effect; inconclusive = small, poorly fitted or top-dose-only effect, or another doubt; inactive = no such curve, though single readings can be large or run the other way; cell line not stated here;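 also: phosphodiesterase inhibitor Ro 20-1724 added with compounds to block cAMP breakdown; potency is read from the fitted curve at half-maximal effect; nearly all actives have a fitted effect of over 60% in size; about a fifth of the inactives were tested at one dose only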
#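 Cells stably selected in G418 were plated at 2000/well, grown 16-24 hr, then given compounds in DMSO with the PDE inhibitor […] (300 uM solution added) for 30 min at 37C; cAMP was read by HTRF.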
# Sfp PPTase inh = inhibitors of Bacillus subtilis Sfp phosphopantetheinyl transferase. Q9F4F7. Biochemical Sfp PPTase activity, qHTS. Potency, µM, for the others: max response, negative = inhibition, hits mostly inhibitors. hit rate 3.5% among 310,000. AID 1490; active = well fitted inhibition curve with a large enough effect; inconclusive = small, poorly fitted or top-dose-only effect, or another doubt; inactive = no such curve, though single readings can be large or run the other way;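 also: the enzyme is Sfp with the accession as filed and its product quenches rhodamine fluorescence; potency is read from the fitted curve at half-maximal effect; 0% = enzyme reaction without inhibitor and -100% = no enzyme wells; top concentration of the series not given in the record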
#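 Compounds were incubated with enzyme (final 15 nM) for 15 min at room temperature before substrate addition started the reaction. Fluorescence at 525 nm excitation, 598 nm emission was recorded immediately and after 30 minutes.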
# Menin-MLL FL inh = inhibitors of human menin-MLL interaction, wild-type MLL peptide; Fluorescence polarization, fluorescein-MLL peptide displacement from menin; FP activity change, % at 61.4 µM; 290,000 tested, under 10 active; AID 1766; inconclusive = falling polarisation curve, or a change in total fluorescence; inactive = total fluorescence flat and polarisation flat or rising; no compound was filed as active; the % refers to the polarisation; negative = inhibition;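 also: % of control where 0% means no effect; inhibitors lower the polarisation; unlabelled MLL peptide was the positive control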
# TRPML1 blocker = inhibitors of human TRPML1 channel; hit rate 0.02% among 390,000; activity change, negative = inhibition, % (concentration not given with the values); AID 624415; TRPML1-inducible cells, Ca2+ dye fluorescence, FDSS; hits give low values; inhibition of EC80 agonist-evoked calcium signal; in the data active means activity change below about -50%; inconclusive means about -30% to -50%; inactive means above about -30%;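 also: stimulus is agonist 54-4 at its EC80 concentration; % is scaled to controls: 0 for no effect and ±100 for the full control effect; compound concentration not given in the record; the text of the record puts the active cut at -80%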
# Target sequence (Q9GZU1 whole entry, looked up): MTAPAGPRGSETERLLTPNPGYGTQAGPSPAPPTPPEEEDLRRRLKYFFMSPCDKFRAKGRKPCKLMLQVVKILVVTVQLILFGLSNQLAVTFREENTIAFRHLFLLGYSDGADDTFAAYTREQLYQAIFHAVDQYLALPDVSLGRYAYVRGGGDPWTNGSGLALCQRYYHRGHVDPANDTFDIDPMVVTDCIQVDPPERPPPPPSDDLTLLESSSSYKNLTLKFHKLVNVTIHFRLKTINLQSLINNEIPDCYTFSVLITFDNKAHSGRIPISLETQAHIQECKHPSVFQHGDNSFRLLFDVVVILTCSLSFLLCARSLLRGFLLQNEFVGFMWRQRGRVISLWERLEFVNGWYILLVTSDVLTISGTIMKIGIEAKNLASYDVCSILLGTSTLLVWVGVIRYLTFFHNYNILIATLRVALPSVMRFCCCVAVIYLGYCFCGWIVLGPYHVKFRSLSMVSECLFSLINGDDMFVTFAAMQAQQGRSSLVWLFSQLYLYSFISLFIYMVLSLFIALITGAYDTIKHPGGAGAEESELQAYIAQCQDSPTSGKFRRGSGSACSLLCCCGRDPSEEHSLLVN
#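 TRPML1-DL cells, Tet-induced overnight (~16 h, 37 °C) at 1,500 cells/well, were loaded with Ca8 no-wash dye plus quencher for 45-90 min at room temperature. Compounds were pinned during FDSS kinetic reading; agonist 54-4 at EC80 (4 uM final) then added.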
# ClpP mod = qHTS Assay for Activators of ClpP; purified B. subtilis ClpP, FRET peptide cleavage, 20 min; hit rate 1.9% among 340,000; Potency, µM (highest dose often 57.5 µM), for the others: at the top dose activity change, negative = active; active = well fitted falling curve with a large enough effect; inconclusive = small, poorly fitted or top-dose-only effect; inactive = no such curve, though single readings can be large or run the other way; also: potency is read from the fitted curve at half-maximal effect; the source files actives as falling curves though it sought activators and does not explain the sign; nearly all actives have a fitted effect of over 65% in size; many hits overshoot -100%
# Target sequence (P80244 whole entry, looked up): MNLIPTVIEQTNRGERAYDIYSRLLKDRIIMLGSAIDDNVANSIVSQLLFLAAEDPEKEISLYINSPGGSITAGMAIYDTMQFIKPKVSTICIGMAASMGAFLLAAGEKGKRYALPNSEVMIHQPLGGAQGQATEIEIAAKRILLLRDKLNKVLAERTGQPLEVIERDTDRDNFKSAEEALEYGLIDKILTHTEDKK
#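 Buffer: 100 mM Tris/HCl pH8, 100 mM KCl, 0.05% low protease BSA, 2.5% glycerol, 0.01% Tween-20. ClpP 10 microg/mL final; 20 min RT; delta FRET normalized to ADEP and DMSO controls.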
# TRPV1 PAM = human TRPV1 potentiation. potentiation, % at 8.33 µM. hit rate 0.02% among 320,000. Q8NER1. TRPV1-expressing cells, Fluo-8 calcium influx, capsaicin EC20 potentiation; host cell line not named in the record; control for the full effect not named in the record. AID 540277; active means potentiation above 80%; inconclusive means 30% to 80%; inactive means below 30%; also: 0% is about no effect
#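 TRPV1-expressing cells were cultured overnight at 35.5C and loaded with Fluo-8 calcium dye for 40 to 90 min at room temperature. After a 10 s baseline, compound was added and calcium influx was read kinetically for 3 min (ex 480/em 520 nm).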
# gsp antagonist = antagonizes gsp, the McCune-Albright syndrome mutation; gsp-mutant cells, cAMP HTRF, 30 min; control for the full effect not named in the record; Potency, µM (doses to about 76.9 µM), for inactives: at the top dose activity change, negative = inhibition, hits mostly inhibitors; hit rate 0.4% among 340,000; AID 624288; active = falling curve of any shape with a large fitted effect; inconclusive = falling curve, mostly with a smaller effect; inactive = flat or rising curve; cell line not stated here;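 also: intracellular cAMP measured with PDE inhibitor Ro 20-1724 present during compound exposure; potency is read from the fitted curve at half-maximal effect; % is scaled to controls: 0 for no effect and ±100 for the full control effect; nearly all actives have a fitted effect of over 65% in size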
#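 Cells in G418 medium, seeded 16-24 h, 37C; buffer exchange to DPBS + 1 mM CaCl2, 0.5 mM MgCl2, 0.05% BSA; cpds in DMSO + […] (300 uM stock), 30 min 37C; HTRF cAMP detection.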
# Numbers without * were called inactive; ? = inconclusive; nt = not tested or not shown; & = joins results of further samples; [ ] = another dose, or the depositor's remark.
SMILES,gsp agonist,Sfp PPTase inh,Menin-MLL FL inh,TRPML1 blocker,ClpP mod,TRPV1 PAM,gsp antagonist
CC(=O)NC1CC(C)(C)N(OC(C)=O)C(C)(C)C1,-35%[inhibitor],19%,-1.7,-7,-0.2%,18,10%
O=C(NN=C1c2ccccc2-c2ccccc21)c1cccc(Br)c1,15%,16%,1.8,44,2.3%,-3,-6%
CC1CN(c2ccnc3cc(Cl)ccc23)CC(C)O1 (stereo not given),-27%,6%,-0.9,-24,nt,-18,-7%
COc1ccc(Cl)cc1NC(=O)NC1CCCCC1,9%,5%,2.2,-7,0.5%,3,-11%
O=C(CSc1nc2c(c(=O)n1-c1ccccc1)SCC2)N1CCN(c2ccccc2)CC1,-3%,-17%,0.7,6,0.7%,-5,?
CCCNC(=O)CSc1nc2[nH]ncc2c(=O)[nH]1,16%,-6%,-4.7,-12,-3.5%,-6,-19%
CCOC(=O)c1[nH]cnc1C(=O)Nc1cccc(N)n1,?,-17%,-2.2,13,14µM*,-4,8%
CCOC(=O)/C(=C\c1c[nH]c2ccccc12)NC(C)=O,7%,3%,5.6,-18,1.2%,2,7%
COC(=O)C1=C(C)NC(=S)NC1c1ccc(-c2cccc(Cl)c2)o1 (stereo not given),21%[15.4 µM],7.1µM*,14,36,0.6%,19,6%
Cn1cccc1/C=N/NC(=O)c1cccs1,19%,11%,nt,-1,-1.5%,4,-14%
Cc1cccc(-n2ccc(=O)c(C(=O)Nc3ccc(S(=O)(=O)N4CCOCC4)cc3)n2)c1,-17%,0%,nt,8,-1.0%,-6,-19%
CC(=O)c1ccc(-c2ccc(C(=O)N(C)c3c(N)n(Cc4ccccc4)c(=O)[nH]c3=O)o2)cc1,-3%,nt,nt,-15,-12%,9,-6%
CCNC(=O)N1CCN(C(=O)NCC)CC1,?,-4%,-6.1,-23,0.2%,-10,11%
Cc1cc(C)n2nc(C(=O)OCC(=O)Nc3ccc(Cl)cc3)nc2n1,-16%,nt,nt,7,0.4%,nt,nt
O=C(CCC(=O)N/N=C/c1cc(Cl)cc(Cl)c1O)NCc1ccccc1,12%[15.4 µM],23%,?,-4,nt,9,1%
COc1cccc(CC(=O)Nc2ccc3c(c2)CCC3)c1,19%,6%,4.2,11,nt,-10,3%
O=C(Nc1nc2ccccc2s1)c1ccc(OCC2CCCO2)cc1 (stereo not given),12%,?,3.6,-4,-17%,14,32µM*
CC[C@@H](C)C(NC(=O)OC(C)(C)C)c1cn([C@@H](Cc2ccc(O)cc2)C(=O)N2CCN(C(=O)OC(C)(C)C)CC2)nn1 (stereo not given in full),?,13%,-0.9,-3,-0.4%,-5,-1%
O=C(COc1ccc2ccccc2c1)Nc1nccs1,-6%[15.4 µM],-2%,-0.7,13,-1.4%,2,2%
COc1ccc(S(=O)(=O)NCc2ccco2)cc1C(=O)N1CCOCC1,-2%[15.4 µM],-7%,0.5,3,nt,2,24%
Cc1ccc(S(=O)(=O)N(C)C[C@H]2Oc3c(NC(=O)Nc4cccc5ccccc45)cccc3C(=O)N([C@@H](C)CO)C[C@@H]2C)cc1,nt,nt,nt,6,-30%,nt,-23%
NCCCCCC(=O)N/N=C/c1ccc2nccnc2c1,7%[15.4 µM],11%,-0.7,-2,1.9%,6,7%
COc1ccc(/C=N/n2c(-c3cccs3)n[nH]c2=S)cc1,0%,-30%,-0.4,3,-1.3%,nt,-17%
O=C(Nc1nccs1)c1nc[nH]c1C(=O)NCc1ccccc1,16%,nt,nt,3,-4.9%,-2,9%
Cn1nc(C(C)(C)C)cc1C(=O)NCc1ccc(N2CCCC2=O)cc1,12%,19%,1.3,3,-1.0%,?,?
COc1cc(/C=N/NC(=O)CCn2c3ccccc3c3ccccc32)ccc1O,-24%,6%,-0.7,-9,-20%,4,-18%
CN(CC(=O)Nc1ccc(Cl)c(C(F)(F)F)c1)C(=O)c1ccc(N2CCOCC2)c([N+](=O)[O-])c1,-16%[15.4 µM],nt,nt,8,nt,7,-19%
N#Cc1cn(CC(=O)NCc2cccnc2)c2ccccc12,8%,8%,0.1,6,-2.3%,3,6%
O=C(COC(=O)c1cc[n+]([O-])cc1)Nc1cccc(Cl)c1Cl,3%,11%,-2.6,26,nt,?,7%
O=C1N=C(N2CCOCC2)S/C1=C\C=C/c1ccccc1,0%,6%,3.6,10,-1.8%,-3,?
COc1ccccc1OCCSc1nnnn1C1CCCCC1,-4%,nt,nt,20,-1.5%,nt,-5%
C/C=C/C(=O)OCC(=O)NC(=O)NC(C)C,0%,7%,3.2,6,0.2%,2,-2%
CC(Oc1ccc2ccc(=O)oc2c1)C(=O)NCCN1CCOCC1 (stereo not given),?,18%,-0.2,-7,3.9%,2,-2%
Cc1ccc(OCCNC(=O)CCc2nc3sc4c(c3c(=O)[nH]2)CCCC4)cc1,0%,nt,nt,39,-4.9%,nt,-4%
CCOC(=O)c1c(C)[nH]c(C)c1S(=O)(=O)N1CCN(c2cccc(C)c2)C(C)C1 (stereo not given),0%,-3%,0.3,5,-0.3%,5,6%
CC[C@]12c3[nH]c4cc(-c5ccco5)ccc4c3CCN1C(=O)[C@@H](CC(=O)NCCCN(C)C)C[C@@H]2C(=O)N1CCN(C(=O)c2ccco2)CC1,nt,nt,nt,-2,-15%,nt,5%
CC(C)C(=O)Nc1ccc2nn(-c3ccc(F)cc3)nc2c1,-26%,0%,-0.4,nt,4.0%,10,-3%
COc1ccc(CCNC(=O)CSc2nn(-c3ccccc3)c(=S)s2)cc1,-1%[15.4 µM],12%,0.4,7,nt,11,-15%
COc1ccc(CC(Cc2ccc(OC)c(OC)c2)NC=O)cc1OC,7%,nt,nt,-6,0.4%,nt,nt
CC1Cc2ccccc2N1C(=O)C1CCCN1S(=O)(=O)c1ccc(Cl)cc1 (stereo not given),-18%,-7%,-1.4,77,-1.1%,5,-2%
Nc1ccccc1C(=O)NCCCN1CCN(c2cccc(Cl)c2)CC1,-19%,nt,nt,-8,nt,nt,-12%
Cc1ccccc1-n1c(SCC(=O)N2CCC(C(=O)O)CC2)nnc1-c1ccncc1,-2%[15.4 µM],12%,2.0,-2,1.3%,20,-9%
CC(=O)Nc1ccc(N2CC(C)(C)C2=O)cc1,23%,11%,-6.4,39,0.6%,1,-3%
NC1=NC(=O)/C(=C/c2cn(Cc3ccccc3)c3ccccc23)S1,28%,?,?,5,-3.2%,26,1%
O=C(OCc1csc(-c2ccccc2)n1)c1ccc(O)cc1,14%[15.4 µM],-20%,1.7,10,nt,0,-1%

# Random excerpt: 3 records from the list.
SMILES,gsp agonist,Sfp PPTase inh,Menin-MLL FL inh,TRPML1 blocker,ClpP mod,TRPV1 PAM,gsp antagonist
Cc1ccccc1-n1c(SCC(=O)N2CCC(C(=O)O)CC2)nnc1-c1ccncc1,-2%[15.4 µM],12%,2.0,-2,1.3%,20,-9%
CC1CN(c2ccnc3cc(Cl)ccc23)CC(C)O1 (stereo not given),-27%,6%,-0.9,-24,nt,-18,-7%
CC(=O)Nc1ccc(N2CC(C)(C)C2=O)cc1,23%,11%,-6.4,39,0.6%,1,-3%

# (listing goes on)
SMILES,gsp agonist,Sfp PPTase inh,Menin-MLL FL inh,TRPML1 blocker,ClpP mod,TRPV1 PAM,gsp antagonist
Cc1noc(C)c1C(=O)N1CCC(C(=O)c2ccc(F)cc2F)CC1,9%[15.4 µM],5%,?,-6,1.6%,4,3%
CCCC(=O)Nc1ccc(OCC(O)CNC(C)C)c(C(C)=O)c1 (stereo not given),nt,12%&15%,3.8&3.9,41,-6.1%,-8,6%
CSc1nc(-c2ccc(C)cc2)[nH]c1S(=O)(=O)c1ccccc1,-29%,-20%,2.0,-22,-2.8%,14,-29%
Cc1ccc(S(=O)(=O)NCCOc2nc(N3CCOCC3)nc(N3CCOCC3)n2)cc1,11%,10%,9.4,-17,1.5%,-11,1%
COC(=O)CNC(=O)c1ccc(=O)oc1,0%,9%,1.4,-13,6.5%,-11,1%
CCCCn1c(N)c(N(Cc2ccccc2OC)C(=O)CN2C(=O)NC(C)(c3ccccc3)C2=O)c(=O)[nH]c1=O (stereo not given),?,nt,nt,-8,-4.2%,-6,6%
COc1cccc(NC(=O)CCC2CCN(C(=O)c3c(C)noc3C)CC2)c1,5%,5%,-0.4,25,-2.1%,8,1%
CCCC(C(=O)NC1CCCC1)N(Cc1ccc2c(c1)OCO2)C(=O)c1snc(C(N)=O)c1N (stereo not given),-36%[inhibitor],-1%,2.4,18,-17%,3,-18%
CC1(C)Cc2[nH]c(=O)c(C#N)cc2CS1,30%,9%,2.1,-3,14µM*,7,4%
CCCc1cc(=O)oc2c3c(ccc12)OCN(Cc1ccc(OC)cc1)C3,nt,nt,nt,20,4.1%,-4,nt
COc1ccc(NC(=O)CSc2nnc(-c3ccccn3)n2N)c(OC)c1,-2%,-8%,1.0,0,-2.7%,0,-2%
Fc1ccc(CNCCC(Cc2ccccc2)c2ccco2)cc1 (stereo not given),24%,11%,1.4,15,nt,-10,3%
CCOC(=O)c1c(NC(=O)COC(=O)CNC(=O)c2ccco2)sc(C)c1C,-7%[15.4 µM],15%,4.3,5,-1.4%,-17,-2%
COc1ccccc1CCNS(=O)(=O)CCNC(=O)c1ccc2c(c1)OCO2,8%,nt,nt,4,-0.8%,5,-2%

# Results in Sfp PPTase inh, TRPML1 blocker and ClpP mod, for six of the compounds above:
mol | Sfp PPTase inh | TRPML1 blocker | ClpP mod
C/C=C/C(=O)OCC(=O)NC(=O)NC(C)C | 7% | 6 | 0.2%
O=C1N=C(N2CCOCC2)S/C1=C\C=C/c1ccccc1 | 6% | 10 | -1.8%
Cc1ccc(S(=O)(=O)N(C)C[C@H]2Oc3c(NC(=O)Nc4cccc5ccccc45)cccc3C(=O)N([C@@H](C)CO)C[C@@H]2C)cc1 | nt | 6 | -30%
COc1cccc(CC(=O)Nc2ccc3c(c2)CCC3)c1 | 6% | 11 | nt
Nc1ccccc1C(=O)NCCCN1CCN(c2cccc(Cl)c2)CC1 | nt | -8 | nt
CN(CC(=O)Nc1ccc(Cl)c(C(F)(F)F)c1)C(=O)c1ccc(N2CCOCC2)c([N+](=O)[O-])c1 | nt | 8 | nt
